# Screening results deposited in PubChem BioAssay by National Center for Advancing Translational Sciences (NCATS).
# MARV entry inh – blocks Marburg virus binding to or entry into cells; Marburg virus pseudotyped entry inhibition, cell reporter; control for the full effect not named in the record; about a third of the inactives were read at about 46 µM; Potency, µM (highest dose often 37.8 µM), for the others: top-dose activity change, negative = inhibition, usual class: inhibitors; 300,000 tested, 1.8% active; active = well fitted inhibition curve with a large enough effect; inconclusive = small, poorly fitted or top-dose-only effect, or effect the other way; inactive = flat fitted curve, though single readings scatter; tested in HEK293 cells; about a fifth of its hits are not listed in these tables; note: % is set by controls: 0 for no effect and ±100 for the full control effect; luciferase read-out
# Cruzain Triton – cruzain (T. cruzi) inhibition with detergent; P25779; Potency, µM, inactives show max response, negative = inhibition, usual class: inhibitors; 200,000 tested, 0.43% active; purified cruzain, Z-FR-AMC fluorescence, 0.01% Triton; active = well fitted curve in the direction sought with a large enough effect; inconclusive = small, poorly fitted or top-dose-only effect, or another doubt; inactive = no such curve, though single readings can be large; an effect the other way counts as inactive or inconclusive;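 note: plate controls were neutral wells for no effect and buffer without enzyme for full effect; nearly all actives have a fitted effect of over 40% in size; top concentration of the series not given in the record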
# Target sequence (P25779 123-467 limits assumed): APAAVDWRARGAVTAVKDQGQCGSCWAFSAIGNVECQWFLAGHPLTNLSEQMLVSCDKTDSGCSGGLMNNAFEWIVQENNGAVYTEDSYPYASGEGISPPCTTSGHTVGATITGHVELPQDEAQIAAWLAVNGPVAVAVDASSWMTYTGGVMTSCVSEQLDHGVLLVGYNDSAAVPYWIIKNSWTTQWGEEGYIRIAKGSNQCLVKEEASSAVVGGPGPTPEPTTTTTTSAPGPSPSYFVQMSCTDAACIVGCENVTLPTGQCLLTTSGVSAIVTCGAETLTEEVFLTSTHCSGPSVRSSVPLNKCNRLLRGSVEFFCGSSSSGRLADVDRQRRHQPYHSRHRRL
#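 Sodium acetate buffer (100 mM, pH 5.5) containing 5 mM DTT and 0.01% Triton X-100 hosted 1.5 nM cruzain and test compound for 15 min at room temperature. Cleavage of 2 uM Z-FR-AMC was then tracked by fluorescence.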
# NS1 function inh – influenza NS1 inhibition. 270,000 tested, 0.4% active. S. cerevisiae slowed by influenza A NS1, growth recovery by OD600. Potency, µM (doses to about 46.1 µM), for inactives: at the top dose activity, positive = more growth; note: actives are rising curves; nearly all actives have a fitted effect of over 50% in size
#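 OD600 was taken as the measure of yeast growth restored by compound in an NS1-expressing S. cerevisiae strain. Cells had been washed out of glucose medium and diluted 1:100 into galactose -URA medium, pH 6.0.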
# RE007 growth inh – less growth of the S. pombe RE007 Vpr strain. 360,000 tested, 0.21% active. Potency, µM (highest dose often 92.2 µM), without a hit: top-dose activity change, negative = less growth. S. pombe RE007 Vpr strain, BacTiter-Glo ATP luminescence, 24 h; control for the full effect not named in the record; active = well fitted falling curve with a large enough effect; inconclusive = small, poorly fitted or top-dose-only effect; inactive = no such curve, though single readings can be large or run the other way;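 note: % is set by controls: 0 for no effect and ±100 for the full control effect; nearly all actives have a fitted effect of over 50% in size; the assay follows cell death caused by Vpr and the record does not say whether a fall means rescue or toxicity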
#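 Fission yeast strain RE007, carrying one chromosomally integrated HIV-1 vpr copy, was seeded at OD 0.01 in PMG+AL medium with 23 nL pinned compound. After 24 h at 30 °C and 99% humidity, viability was read by BacTiter-Glo luminescence.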
# StopGo reporter – lowers the luciferase signal of an FMDV 2A StopGo reporter; Potency, µM (highest dose often 57.9 µM), inactives show at the highest dose signal change, negative = less light; human cells with a luciferase reporter of 2A StopGo recoding; control for the full effect not named in the record; 410,000 tested, 1.2% active; active = well fitted falling curve with a large enough effect; inconclusive = small, poorly fitted or top-dose-only effect; inactive = no such curve, though single readings can be large or run the other way; tested in HEK293T cells; note: % is set by controls: 0 for no effect and ±100 for the full control effect; nearly all actives have a fitted effect of over 45% in size; luciferase light after 4 h
# Lassa entry inh – blocks Lassa virus binding to or entry into cells. Lassa virus pseudotype entry inhibition, cell reporter; control for the full effect not named in the record. Potency, µM (top dose mostly 37.9 µM), inactives show at the highest dose activity change, negative = inhibition, most hits filed as inhibitors. 300,000 tested, 1.2% active. AID 540256; active means well fitted inhibition curve with a large enough effect; inconclusive means small, poorly fitted or top-dose-only effect, or effect the other way; inactive means flat fitted curve, though single readings scatter; tested in HEK293 cells; note: % is set by controls: 0 for no effect and ±100 for the full control effect; nearly all actives have a fitted effect of over 50% in size; luciferase read-out
# SARS PLP yeast – inhibitors of SARS-CoV papain-like protease in yeast; S. cerevisiae expressing SARS-CoV PLpro, growth rescue; control for the full effect not named in the record; Potency, µM (series often up to 32.9 µM), without a hit: at the top dose activity, positive = growth rescue; 330,000 tested, 0.19% active; AID 485353; note: 0% is about no effect; nearly all actives have a fitted effect of over 55% in size; growth read by luminescence after 48 h
# Cruzain noTriton – blocks cruzain activity in detergent-free assay. P25779. purified cruzain, Z-FR-AMC fluorescence, no detergent. Potency, µM, for inactives: max response, negative = inhibition, hits mostly inhibitors. 200,000 tested, 2.3% active. AID 1476; active = well fitted curve in the direction sought with a large enough effect; inconclusive = small, poorly fitted or top-dose-only effect, or another doubt; inactive = no such curve, though single readings can be large; an effect the other way counts as inactive or inconclusive;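 note: plate controls were enzyme without inhibitor for no effect and buffer without enzyme for full effect; nearly all actives have a fitted effect of over 40% in size; top concentration of the series not given in the record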
#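 Purified cruzain at 1.5 nM, pre-incubated 15 min with compound at room temperature in 100 mM sodium acetate pH 5.5, 5 mM DTT, 0.00005% Triton X-100. Reaction started with 2 uM Z-FR-AMC; AMC fluorescence increase over 60 s gives rate.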
# * hit, by the source's call; ? = inconclusive; . = not tested or not shown; & = joins results of further samples; [ ] = remark or other dose. Unless noted, calls come from the whole dose curve; as a rule, active means well fitted rising curve with a large enough effect; inconclusive means small, poorly fitted or top-dose-only effect; inactive means no such curve, though single readings can be large or run the other way. Potency is the fitted concentration of half-maximal effect.
SMILES,MARV entry inh,Cruzain Triton,NS1 function inh,RE007 growth inh,StopGo reporter,Lassa entry inh,SARS PLP yeast,Cruzain noTriton
CN(C)c1ccc(S(=O)(=O)N2CCCCC2)cc1NC(=O)CCNC(=O)c1ccc(Cl)cc1,-5%,.,.,3%,-3%,-2%,-2%,.
CCOC(=O)c1ccc2c(c1)N(Cc1cc(C)ccc1C)C(=O)c1ccccc1S2(=O)=O,.,1.5%,.,.,-9%,?,.,-29%
COc1cccc(CNC(=O)c2ccccc2SCC(=O)N2CCCC2)c1,-6%,.,.,-11%,-4%,3%,0%,.
C1=CC2c3ccccc3NC(c3ccncc3)C2C1 (stereo unspecified),?,-5.8%,?,-19%,?,-34%,0%,?
CCOC(=O)c1cnc(SCC(=O)OC)nc1N,.,.,5%,-2%,40%[activator],.,-1%,.
COc1ccccc1CC(=O)N1CCN(c2ccccc2F)CC1,.,.,-6%,1%,-2%,.,-4%,.
CCc1ccc(NC(=O)Cn2c(=O)c3cccn3c3ccccc32)cc1,.,-4.1%,23%,12%,-7%&-11%,-29%[46.1 µM],2%,-24%
CN(CCCCCCN(C)Cc1ccccc1O)Cc1ccccc1O,.,.,17%,-16%,-4%,.,0%,.
CC[C@H](C)[C@H](NC(=O)[C@H](Cc1ccc(O)cc1)NC(=O)[C@@H](N)C(C)C)C(=O)N[C@@H](Cc1cnc[nH]1)C(=O)N1CCC[C@H]1C(=O)N[C@@H](Cc1ccccc1)C(=O)O,-10%,14µM*,-6%,4%,-28%,-1%,1%,16µM*
CCOc1ccc(NC(=O)CN2CCC(NC(=O)C3CCCCC3)CC2)cc1,1%,0.9%,1%,.,.,.,-6%,-5%
CCC(=O)N1CCN(c2cc(N3CCN(C)CC3)c(F)cc2[N+](=O)[O-])CC1,-11%,-8.3%,6%,-11%,-24%,-2%,12%,-14%
Nn1cc(-c2ccccc2)nc1SCC(=O)NCC1CCCO1 (stereo unspecified),1%[46.1 µM],.,5%,4%,13%,14%,-3%,.
CCCCSc1n[nH]c(=S)c2nc[nH]c12,?,.,.,10%,2%,16%[46.1 µM],.,.
Cc1ccc(C2/C(=C(\O)c3ccc4c(c3)OCCO4)C(=O)C(=O)N2Cc2cccnc2)cc1 (stereo unspecified),0%[46.1 µM],.,5%,-8%,-16%,-19%[46.1 µM],1%,.
CCOC(=O)C1=C(C)OC(N)=C(C(=O)OCC)C1c1cccnc1 (stereo unspecified),-15%&-15%,-4.5%,-5%,-18%,-11%,9%,2%,-1%
Cc1cc(Cl)ccc1NNC(=O)CCc1ccccc1,20%,.,-33%,68%,4%,-21%,0%,.
O=C(NCCCNC(=O)c1ccccn1)c1ccc(Br)cc1,9%,.,15%,5%,-15%,23%,8%,.
O=C(Cc1csc(Nc2nc(=S)[nH]c3ccccc23)n1)NCc1cccc(Cl)c1,?,2.4%,10%,-8%,5%,-29%,2%,4µM*
Cc1cccc2nc(CSCc3ccco3)cn12,?,-5.3%,-4%,-7%,7%,?,2%,-9%
O=C(COc1ccc2c3c(c(=O)oc2c1)CCC3)N1CCCCC1,?,.,0%,6%,64%[activator],-22%,1%,.
O=S(=O)(NCc1ccc(F)cc1)c1cccc(S(=O)(=O)N2CCOCC2)c1,-4%,-1.0%,1%,-10%,23%,-9%,4%,5%
CCc1ccc(NC(=S)NNC(=O)c2ccccc2OC(F)F)cc1,-43%,-4.7%,-14%,.,.,-25%,4%,-2%
Cc1ccc(Cl)cc1NC(=O)CN(C)S(=O)(=O)c1ccc2c(c1)n(C)c(=O)c(=O)n2C,16%[46.1 µM],-0.1%,.,.,-6%,12%[46.1 µM],.,-3%
Cc1ccc(S(=O)(=O)/N=C(/NNC(=O)c2cccc(Cl)c2)c2ccccc2)cc1,?,.,-31%,?,50%[activator],-22%,1%,.
COc1ccc(C(C)(C)C)cc1NC(=O)CCCN1C(=O)NC(C)(C)C1=O,?,.,.,15%,-11%,?,-1%,.
# Additional results.
SMILES,MARV entry inh,Cruzain Triton,NS1 function inh,RE007 growth inh,StopGo reporter,Lassa entry inh,SARS PLP yeast,Cruzain noTriton
CC(NC(=O)c1ccc(Br)cc1)c1ccc2c(c1)CCCC2 (stereo unspecified),-27%,-2.3%,-16%,13%,?,-14%,-54%,9%
Cc1cccc(NC(=O)N2CCN(Cc3ccc4c(c3)OCO4)CC2)c1C,.,.,-8%,1%,-21%,.,0%,.
COc1ccc(Cn2c(=O)c3oc4ccccc4c3n(Cc3ccccc3)c2=O)cc1,.,-0.5%,.,.,-25%,14%[46.1 µM],.,-1%
CCOC(=O)c1ccc(N=c2scc(C)n2CC)cc1,5.6µM*,.,.,-10%,-1%,?,-2%,.
O=C(NCc1ccccc1)C1=C[C@H](c2csc3ccccc23)C[C@H](OCCCCO)O1,.,.,2%,3%,-6%,.,-4%,.
CCOC(=O)C1CCCN(C(=O)C2COc3ccccc3O2)C1 (stereo unspecified),18%,.,.,3%,-6%,21%,.,.
COCc1c(C(=O)N(C)Cc2ccccc2N2CCCC2)oc2ccccc12,?,.,.,17%,?,15%,2%,.
O=C(CSc1nnc(NC(=O)C2CC2)s1)NCc1ccccc1,2%[46.1 µM],.,6%,-11%,-1%,.,2%,.
COc1ccc(C(=O)Nc2ccnn2C2CCN(C(=O)CCC(F)(F)F)CC2)cc1,.,.,-6%,-1%,10%,.,2%,.
O=C(COC(=O)c1cc(S(=O)(=O)N2CCOCC2)ccc1O)Nc1cc(S(=O)(=O)N2CCCC2)ccc1Cl,-3%,.,2%,13%,17%,2%,0%,.
COc1ccc(Cn2cnc3c(N)c(C)c(C)cc32)cc1,23%[46.1 µM],.,.,-14%,-5%,0%,1%,.
Cc1ccc(N(CC(=O)NC(C)c2ccccc2)S(=O)(=O)c2cccs2)cc1 (stereo unspecified),-16%,5.4%,-2%,3%,.,-29%,-3%,7%
CCCCn1c(C)c(C(=O)OCC)c2c(CN3CCOCC3)c(O)ccc21,?,-7.0%,?,0%,-16%,?,-3%,7%
Cc1cc(SCC(=O)Nc2ccc(Cl)cc2)nc2ccccc12,?,-3.9%,.,.,-17%,14%[46.1 µM],.,-8%
O=C(c1ccc2c(c1)N(Cc1cccc(Cl)c1)C(=O)c1ccccc1S2(=O)=O)N1CCN(c2cccc(C(F)(F)F)c2)CC1,.,-1.8%,.,.,-24%,-12%[46.1 µM],.,5µM*
CC1CN(CC(=O)Nc2ccc(S(N)(=O)=O)cc2)CC(C)O1 (stereo unspecified),2%,.,-2%,3%,-14%,?,2%,.
Cc1ccc(-c2c(NC(=O)c3ccco3)oc3ccccc3c2=O)cc1,.,.,-11%,8%,-4%,.,-3%,.
Cc1ccccc1OCC(=O)NCC(c1ccc(Cl)cc1)N1CCOCC1 (stereo unspecified),-7%[46.1 µM],-3.9%,.,.,?,-1%[46.1 µM],.,?
O=c1[nH]c(=O)n(Cc2ccco2)c(O)c1C=NCc1cccs1,13%,-0.7%,6%,0%,5%,24%[14.3 µM],.,-9%
COc1ccccc1NS(=O)(=O)c1cc(C(=O)NCC(C)(C)N2CCOCC2)ccc1C,10%[46.1 µM],.,.,-4%,0%,-5%,-7%,.
CCc1ccc(N(C(=O)c2csnn2)C(C(=O)NC(C)(C)CC)c2cccnc2)cc1 (stereo unspecified),?,.,.,-12%,-11%,-19%[46.1 µM],-3%,.
Cc1cc2nc(-c3ccc(=O)[nH]c3)n(C)c2cc1C,7%,.,7%,-24%,51%[activator],23%,0%,.
S=C(Nc1cccc(Cl)c1)Nc1ccccc1Oc1ccccc1,-17%,-4.3%,22%,-2%,-22%,?,-5%,-10%
CC(=O)Nc1nc(C=C(Cl)Cl)cs1,0%,-7.9%,-71%,6%,29%,-12%,-12%,-5%
COc1ccc(O[C@H]2C=C[C@@H](c3ccccc3)O[C@@H]2COC(=O)CC/C(C)=N/OC[C@@H](O)COCc2ccco2)cc1,10%[14.2 µM],-5.1%,-64%,.,.,?,5%,?
# The listing continues.
SMILES,MARV entry inh,Cruzain Triton,NS1 function inh,RE007 growth inh,StopGo reporter,Lassa entry inh,SARS PLP yeast,Cruzain noTriton
Cc1ccc(NS(=O)(=O)c2ccccc2)c(NS(=O)(=O)c2ccccc2)c1,-19%[46.1 µM],.,.,-5%,-3%,-6%[46.1 µM],.,.
Cc1nn(-c2ncc(C(F)(F)F)cc2Cl)c(=O)n1-c1cccc(F)c1,18%[46.1 µM],.,.,-21%,6%,10%,-11%,.
Cc1cc(C)n(-c2nnc(N3CCN(c4ccccc4)CC3)nn2)n1,1%[46.1 µM],.,.,-20%,23%,0%[46.1 µM],-12%,.
COC(=O)N1C(=O)[C@](c2ccccc2)(C2CCCCC2)N1C(=O)OC,.,.,-9%,-8%,-26%,.,-7%,.
S=C1N[C@H]2CCCC[C@@H]2N1,.,.,6%,6%,-10%,.,1%,.
COc1cc(OC)c(OC)cc1/C=N/N(C)c1ccccc1,?,-4.8%,-46%,?,-16%,1%,-5%,?
CN(CC(=O)NCCc1ccc(Cl)cc1)S(=O)(=O)c1cccs1,4%[46.1 µM],.,-18%,3%,13%,27%,-2%,.
COc1ccc(-c2csc(N(CC3CCCO3)C(=O)c3ccco3)n2)cc1 (stereo unspecified),?,0.3%,-8%,-10%,?,?,3%,14%
COc1ccc(Cl)cc1NS(=O)(=O)c1cccc(C(=O)NC2CC2)c1,-26%,.,.,-16%,21%,2%,1%,.
O=CN1CCN(C(C(=O)NC2CCCC2)c2cc3c(cc2[N+](=O)[O-])OCO3)CC1 (stereo unspecified),21%[46.1 µM],.,.,5%,19%,.,5%,.
CCCOC1CCCN(C(=O)c2ccc(OC3CCN(C(=O)CCOC)CC3)cc2)C1 (stereo unspecified),5%,.,11%,0%,25%,20%,0%,.
